MT1-MMP act inh: blockers of MT1-MMP proenzyme processing, primary screen, HT1080 RFP-PRO-GFP cells, GFP/RFP fluorescence; AID 651647, 2012; 360,000 tested, 0.061% active; GFP/RFP ratio fluorescence, overnight; percent of plate control window, DMSO zero; GFP/RFP ratio change, % at 20 µM; Matrix metalloproteinase-14 (Homo sapiens), P50281;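 active means GFP/RFP ratio change of at least 30% with cell ATP level not reduced by more than half and red fluorescence within 50% of control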; further: strong numbers were not always called active
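Test system: HT1080 cells expressing an RFP-PRO-GFP fluorescent reporter construct / Compound dosing: single-point 20 µM compound, 1% DMSO / Schedule: cells overnight before dosing, compound overnight, 37 °C, 5% CO2 / Evaluation: GFP/RFP fluorescence ratio / Control set: DMSO and RFP-L50D-GFP cell wells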
CSC inhib: cancer stem cell viability inhibitors, primary screen, luminescence; cancer stem cell-like cells viability; inhibition, % at 7.5 µM; 300,000 tested, 1.1% active;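 active means mean at 75% or more and at least half the replicates too; inconclusive means mean and replicates disagree; tested in HMLE shEcad cells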;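 further: 0% = median of negative and 100% = median of positive control wells; the first replicate is given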
Rce1 inh: yeast Rce1p protease inhibitors, primary screen, biochemical, fluorescence, cell-free homogeneous. CAAX prenyl protease 2 (Saccharomyces cerevisiae (strain ATCC 204508 / S288c)), Q03530. yeast membranes, quenched prenylated peptide cleavage fluorescence. calls only. 290,000 tested, 0.27% active;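 active means fall in fluorescence gain of 50% or more versus controls, with final raw signal at or below 3038400; inconclusive means same 50% fall but final raw signal above 3038400; inactive means fall in fluorescence gain under 50%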;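 further: plate controls were neutral control wells for no effect and wells lacking membranes for full effect; tested at 10 µM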
PABP polyA inh: PABP poly(A) RNA binding inhibitors, primary screen, biochemical, fluorescence polarization, uHTS; AID 2014, 2009; 290,000 tested, 1% active; inhibition, % at 35 µM;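 active means 50% or more with normal probe brightness, or confirmed in later tests; inconclusive means above 50% with abnormal brightness, or retests that disagree; inactive means below 50% or failed in later tests; about a fifth of its hits are not listed in these tables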;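 further: calls also rest on retests at 20 µM and on dose response follow-up; controls were probe without protein and protein plus probe with vehicle; some compounds called inactive have numbers as strong as hits; many hits fall short of the cut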
Target sequence (P11940 whole entry, looked up): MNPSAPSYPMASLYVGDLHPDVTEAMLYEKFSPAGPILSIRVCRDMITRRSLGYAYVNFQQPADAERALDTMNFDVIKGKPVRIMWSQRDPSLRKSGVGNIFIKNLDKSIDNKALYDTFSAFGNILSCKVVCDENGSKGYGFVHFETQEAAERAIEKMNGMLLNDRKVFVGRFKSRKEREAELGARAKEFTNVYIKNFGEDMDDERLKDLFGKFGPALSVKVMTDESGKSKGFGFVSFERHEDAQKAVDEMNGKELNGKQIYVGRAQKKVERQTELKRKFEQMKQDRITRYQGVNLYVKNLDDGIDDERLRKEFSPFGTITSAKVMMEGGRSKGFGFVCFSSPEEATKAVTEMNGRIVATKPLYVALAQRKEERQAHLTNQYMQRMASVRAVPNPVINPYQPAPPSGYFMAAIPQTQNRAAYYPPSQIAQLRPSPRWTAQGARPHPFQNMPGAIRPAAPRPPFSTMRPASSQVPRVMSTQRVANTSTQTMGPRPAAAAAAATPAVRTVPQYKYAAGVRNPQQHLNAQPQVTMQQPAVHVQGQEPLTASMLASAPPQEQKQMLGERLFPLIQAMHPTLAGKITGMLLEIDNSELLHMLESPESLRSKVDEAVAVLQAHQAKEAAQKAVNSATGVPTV
eIF4H FP inh: human eIF4H binding inhibitors, primary screen, translation initiation inhibitor project, biochemical, uHTS, fluorescence polarization. Eukaryotic translation initiation factor 4H (Homo sapiens), Q15056. eIF4H fluorescence polarization binding assay. inhibition, % at 35 µM. 290,000 tested, 0.94% active;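 active means 50% or more with normal probe brightness, or confirmed in later tests; inconclusive means above 50% with abnormal brightness, or retests that disagree; inactive means below 50% or failed in later tests; about a fifth of its hits are not listed in these tables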;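 further: calls also rest on retests at 20 µM and on dose response follow-up; 0% = protein and probe with vehicle and 100% = probe without protein; strong numbers were not always called active; many hits fall short of the cut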
HIV Env fusion: inhibitors of HIV-1 Env-driven cell-cell fusion, primary screen, HeLa-JRFL effector, CEM21 target cells, luciferase; inhibition, % at 12.3 µM; 360,000 tested, 1.1% active; AID 651610, 2012;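 active means mean replicate inhibition score of at least 50 and every replicate individually at or above 50; inconclusive means only one of the two criteria met; inactive means mean below 50 and not all replicates reaching 50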;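 further: 0% = plate neutral controls and 100% = maraviroc near 300 nM; one replicate is shown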
UUG fidelity: modulators of yeast start codon fidelity, primary screen, whole organism, S. cerevisiae, single point, plate reader; AID 602363, 2012; S. cerevisiae UUG-firefly luciferase reporter, luminescence/redox ratio; 350,000 tested, 0.13% active; activity score, % at 18.7 µM;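 active means replicate mean at a twofold rise or more, about +100% in these data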;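 further: firefly luciferase made from a UUG start codon reports start codon fidelity; reporter light over untreated wells divided by growth signal over untreated wells; some hits fall short of that in this replicate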
eIF4H FP inh retest: recorded beside eIF4H FP inh, whose call it bears; inhibition, %; compound at 20 µM; confirmation average;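 mean of two retest wells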
PABP polyA inh retest: second read-out of PABP polyA inh, no call of its own (marks repeat the call); inhibition, %; compound at 20 µM; confirmation repeats;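 mean of two retest wells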
MT1-MMP act inh RFP: further read-out of MT1-MMP act inh, marked with its call; RFP signal change, %; measured here: RFP expression control read;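 0 = vehicle wells; hits needed this value within 50% of zero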
The depositor's hits bear a star; i = inactive; ? = inconclusive; nt = not tested or not shown.

SMILES	MT1-MMP act inh	MT1-MMP act inh RFP	CSC inhib	Rce1 inh	PABP polyA inh	eIF4H FP inh	HIV Env fusion	UUG fidelity	others
Cn1nc(-c2ccccc2)cc1NS(=O)(=O)c1ccc(C#N)cc1	-3.0	0.4	-7.6	i	-5.1	-8.3	-8.2	-15.2
COc1ccc(N(CC2CO2)S(=O)(=O)c2ccccc2)cc1 (stereo unspecified)	-3.6	-3.5	-4.8	i	2.0	0.2	-5.5	nt
O=C(Nc1ncccc1O)c1ccc2ccccc2c1	2.2	6.7	3.9	i	2.8	-6.6	-346.6	-54.0
Cc1[nH]c2ccccc2c1SCC(=O)Nc1nccs1	2.2	4.1	-0.9	i	3.1	-3.9	-20.7	nt
CN(C)CCNC(=O)c1nn(C)c2c1CCc1ccccc1-2	3.0	1.1	-10.5	i	0.7	1.0	-3.8	-4.6
COc1cc(/C=N/Nc2ccccn2)ccc1O	-3.7	-4.5	-1.8	i	-7.1	-3.8	-26.8	nt
Cc1cc(C)c(NC(=O)CCCC(=O)O)c(Cl)c1	2.3	-1.1	10.5	i	-1.1	-8.0	-70.3	-1.3
COc1ccc(CNC(=O)C2(CC3CC(c4ccccc4)=NO3)CCN(C(=O)c3cccc(O)c3)CC2)cc1 (stereo unspecified)	3.7	-1.5	17.6	i	nt	nt	65.8*	-12.9
CCC(C)n1c(S(=O)(=O)O)nc2ccccc21 (stereo unspecified)	1.2	-0.9	-5.1	i	8.9	1.0	-23.2	-13.9
c1ccc(Cn2c(-c3ccco3)nc3nc4ccccc4nc32)cc1	-20.0	-4.4	70.0	i	?	?	-219.8	-7.6
COc1ncnc(OC)c1S(=O)(=O)Nc1ccc(C(F)(F)F)cc1	2.2	0.3	-8.0	i	1.2	2.9	17.4	-9.9
COc1cccc(-c2nnc(SCc3ccc(C#N)cc3)n2Cc2ccco2)c1	-1.6	-1.7	-8.0	i	-3.1	-8.3	nt	-18.8
C[C@H]1CC[C@@]2(O[C@@H](CCO)C[C@@H](O)[C@@H]2O)O1	0.1	6.9	1.6	i	12.2	-4.7	22.8	-14.9
CCN1CCN(C(=O)c2sc3ncnc(N4CCc5ccccc5C4)c3c2C)CC1	-3.5	-0.9	-14.3	i	?	-6.0	16.4	nt
O=c1[nH]c2cc3c(cc2cc1CN(Cc1nnnn1CC1CCCO1)C1CCCCC1)OCO3 (stereo unspecified)	-10.3	2.1	-15.1	i	31.0	24.1	nt	5.1
COc1ccc2cc(C#N)c(N3CCOCC3)nc2c1	-9.9	2.9	-12.4	i	-0.8	1.1	-14.9	-4.1
Cc1cccc(Nc2ncnc3onc(-c4cccc(Cl)c4)c23)c1	-1.0	-3.0	-2.7	i	-3.0	2.7	-2.6	-19.2
O=C(/C=C/c1ccccc1[N+](=O)[O-])NCc1ccccc1Cl	-0.3	-1.3	1.6	i	-0.9	1.9	24.1	5.8
COC(=O)C1=C(N)c2c(F)cccc2C1(C#N)c1ccccc1 (stereo unspecified)	-1.7	0.1	-7.4	i	-2.4	-6.7	nt	nt
COc1ccc(-c2cc(C(=O)N3CCN(c4ncccn4)CC3)c3ccccc3n2)c(OC)c1	1.2	-1.3	3.2	i	3.8	-10.7	22.7	nt
[O-][n+]1c2c(nn1-c1ccc(Cl)c(Cl)c1)-c1nonc1CC2	-1.1	-1.0	-9.2	i	8.3	-4.4	-6.4	nt
CC(=O)Nc1cc(C(C)(C)C)c(O)c(C(C)(C)C)c1	1.0	5.9	-4.3	i	4.1	-14.6	-58.0	-9.9
Cc1nn(C)c(=O)n1-c1ccc(Oc2ccccc2)cc1	8.1	5.9	-9.6	i	-3.3	-1.7	40.1	-11.2
O=C(COC(=O)c1cccc(NS(=O)(=O)/C=C/c2ccccc2)c1)Nc1ccccc1OC(F)F	1.6	3.0	-7.7	i	-9.0	1.6	-0.3	-8.7
CC1(C)CC2(CC(C)(C)NC(=O)N2)NC(=O)N1	0.5	4.3	-3.1	i	-4.7	-5.5	nt	-18.9

Next section:
SMILES	MT1-MMP act inh	MT1-MMP act inh RFP	CSC inhib	Rce1 inh	PABP polyA inh	eIF4H FP inh	HIV Env fusion	UUG fidelity	others
CCOC(=O)c1ccccc1NC(=O)C1CCN(c2ncnc3sc(C)c(C)c23)CC1	nt	nt	1.2	i	nt	nt	nt	-11.6
O=S1(=O)CCOC[C@H](CC2CCCCC2)N1Cc1ccc(F)cc1	-4.3	1.3	1.9	i	12.9	8.2	28.4	-4.6
COc1ccc([C@H]2Oc3cc(O)cc(O)c3C(=O)C2[C@@H]2C(=O)c3c(O)cc(O)cc3O[C@@H]2c2ccc(OC)cc2)cc1 (stereo partly specified)	nt	nt	142.4*	i	5.6	3.8	7.0	nt
O=C(COC(=O)c1ccc(O)cc1O)c1ccc2c(c1)OCCO2	-4.3	-6.1	8.4	nt	nt	nt	3.6	-69.2
Cc1ccc(S(=O)(=O)n2c3ccc(Cl)cc3c3nc(C)sc32)cc1	1.0	-0.5	nt	i	-5.2	-11.0	13.4	nt
COc1ccccc1OCC(=O)Nc1ccc2c(c1)n(C)c(=O)n2C	3.8	-1.5	-0.9	i	4.8	-4.2	-2.3	-11.7
CCOc1nc2cnccc2n(CC(=O)Nc2cccc(C)c2)c1=O	2.8	1.8	-9.2	i	-7.1	2.5	1.0	-12.3
O=C(Nc1nc2c(s1)CCCC2)c1ccc2ncsc2c1	-2.6	-9.3	-5.0	i	-9.7	6.1	-232.4	-34.4
CCC(=O)N1CCC1(C)C(=O)NCc1ccc(SC)cc1 (stereo unspecified)	2.2	0.7	nt	nt	nt	nt	-18.7	-8.9
Cn1c(SCc2cc(=O)[nH]c3ccccc23)nnc1-c1ccco1	3.6	3.3	-7.4	i	14.7	-3.2	nt	-9.8
COc1ccc(/C=N/n2cc(-c3ccc(OC)cc3)nc2N)cc1	-10.0	-5.4	1.0	i	-7.4	3.5	nt	-27.1
Cc1cccc(COCC(Cc2ccccc2)N2CCN(C(=O)c3ccc(C(F)(F)F)cc3)CCC2=O)c1 (stereo unspecified)	-4.0	-7.5	32.5	i	2.9	-1.8	nt	-0.5
O=C(Nc1ccncc1)c1ccc(-c2ccccc2)cc1	2.6	-26.8	-14.5	i	-3.8	-5.8	6.0	nt
N#Cc1cc2c(nc1S(=O)(=O)Cc1ccccc1)CCCC2	-5.9	-8.8	7.1	i	10.5	4.9	4.8	1.6
CC1C(=O)N(Cc2cn(Cc3ccco3)nn2)CCS(=O)(=O)N1Cc1ccc(-c2ccc(F)cc2)cc1 (stereo unspecified)	1.9	2.3	nt	nt	nt	nt	-18.6	-13.7
CNc1nc(NCC2CCCCC2)c2sccc2n1	-1.1	-12.6	nt	nt	nt	nt	43.3	-5.4
CCC1SC2=NC(C)=C(C(=O)OC)C(c3ccc(C)cc3)N2C1=O (stereo unspecified)	-37.9	-33.2	-2.2	i	-3.9	14.9	nt	-18.5
COc1ccc(OCC(=O)Nc2ccc(S(=O)(=O)Nc3cc(C)on3)cc2)cc1	2.9	10.4	-5.9	i	nt	nt	-5.7	-19.3
COc1ccccc1CNC(=O)C(C)n1nc(C)c2c(C)n(-c3ccccc3)nc2c1=O (stereo unspecified)	3.6	-8.4	-17.1	i	7.6	-1.1	17.7	-1.8
O=C(COC(=O)/C=C/c1ccccc1)Nc1cccc(Oc2ccccc2)c1	2.6	0.1	-6.8	i	-7.6	5.7	10.8	-18.2
O=C(NC(=S)Nc1ccc(S(=O)(=O)Nc2nccs2)cc1)c1ccc(F)c(F)c1	1.5	0.0	-0.7	i	-2.3	4.8	-5.0	nt
Cc1cc(C)nc(NC(=O)c2ccc(Cl)cc2)n1	3.0	6.6	-6.6	i	26.9	51.4	-5.8	nt	eIF4H FP inh retest=27.3;PABP polyA inh retest=25.9
COc1ccc(-c2nnn(CC(=O)N(CCN3CCOCC3)C(C(=O)NC3CCCC3)c3ccco3)n2)cc1 (stereo unspecified)	0.8	3.4	-7.7	nt	4.6	9.1	4.3	nt
CC1(C)Cc2c(c(N3CCOCC3)nc3sc4c(NCc5ccco5)nnnc4c23)CS1	-2.3	-5.3	nt	i	-14.9	-6.5	nt	2.1
Cc1c(Cl)c([N+](=O)[O-])nn1CC(=O)N1CCCC1	-0.5	3.4	-20.1	i	6.3	1.1	-23.6	nt

Carrying on.
SMILES	MT1-MMP act inh	MT1-MMP act inh RFP	CSC inhib	Rce1 inh	PABP polyA inh	eIF4H FP inh	HIV Env fusion	UUG fidelity	others
CSc1ccccc1NC(=O)c1ccccc1	0.1	3.4	8.7	i	7.4	-1.2	-0.4	nt
COC(=O)c1ccsc1NC(=O)CCc1ccccc1	-5.0	-3.2	5.5	i	-5.4	-8.5	-25.2	10.7
CCCCn1c(N)c(N(C)C(=O)c2cc3c(F)cccc3s2)c(=O)[nH]c1=O	4.9	-0.5	-22.5	nt	nt	nt	-7.5	-8.4
O=C(NCCN1CCCOC1=O)C(=O)NCCN1CCCOC1=O	-1.2	0.6	-12.3	i	-5.0	8.0	-2.2	-9.5
COC(=O)CC1C(=O)NCCN1C(=O)CSc1nnc(Nc2ccc(OC)cc2)s1 (stereo unspecified)	0.4	1.1	-10.0	i	-9.2	-7.3	14.1	-9.7
COc1ccc(S(=O)(=O)N2CCCN(CC(=O)Nc3ccc(NC(C)=O)cc3)CC2)cc1	-0.4	4.0	4.9	i	-3.3	1.0	-11.6	-19.6
O=C(Nc1ccccc1)Nc1ccccc1NS(=O)(=O)c1cccs1	-2.3	-0.1	3.3	i	-2.1	3.8	6.1	nt
CCCc1cc(C(=O)Nc2ccn(Cc3ccc(C)cc3)n2)no1	8.6	-5.0	-13.2	i	-3.8	-2.8	-5.8	nt
N#Cc1c(NC(=O)CCn2cnc3ccccc3c2=O)oc(-c2ccccc2)c1-c1ccccc1	19.5	-9.2	11.8	i	6.9	-2.7	nt	-9.4
O=C(c1ccccc1[N+](=O)[O-])N1CCCN(C(=O)c2ccccc2[N+](=O)[O-])CC1	3.1	2.7	-17.3	i	1.0	0.2	3.3	nt
CC(C)Cn1c(N)c(C(=O)COC(=O)c2cc(S(=O)(=O)N3CCOCC3)ccc2Br)c(=O)n(C)c1=O	0.7	-2.3	-10.1	nt	nt	nt	nt	-12.1
O=C(NCc1ccco1)c1cnc2n(c1=O)CCS2	-0.7	0.3	nt	i	2.8	-3.5	nt	3.5
CCOc1ccc(C(=O)NC2CCN(C(=S)NCc3ccco3)CC2)cc1	0.0	3.4	5.3	i	16.7	-8.7	nt	nt
Cc1oc2ccc(OC(=O)N3CCOCC3)cc2c1C(=O)OC(C)C	-6.7	-9.6	-14.0	i	-5.0	-3.0	1.4	13.6
O=C(NNc1ncnc2ccccc12)c1cccc(Cl)c1	6.5	-0.8	-2.7	i	-9.1	1.9	-43.7	-14.2

Screening data as filed in PubChem BioAssay.
